Sa helicase inh = blocks Staphylococcus aureus DNA helicase; actives 0.05% (n = 120,000); AID 485395; purified S. aureus helicase, fluorescence unwinding assay; about half of the hits fall short of the stated cut; inhibition, %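 (tested at about 80 µM)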;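 active = both duplicates at 50% or more, or one of them with a favoured structure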;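 note: 0% = mean of negative control wells and 100% = mean of positive control wells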
MgrA DNA FP = alters Staphylococcus aureus MgrA binding to DNA; fluorescence polarization; inhibition, %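 (about 10 µg/mL by stock and volumes)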; actives 0.13% (n = 84,000); AID 602314;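 active = above 50% in either of two replicates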;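 note: 0% = protein plus DNA without compound and 100% = DNA alone without protein; higher means less MgrA bound to DNA so lower polarization; one replicate is shown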
An asterisk follows results filed as active; . = not tested or not shown. An excerpt, so the mix of outcomes need not match the whole.

SMILES	Sa helicase inh	MgrA DNA FP
Cc1cc(SCC(=O)c2cc(C)n(C)c2C)n2c(nc3ccccc32)c1C#N	5	.
COc1ccc(NS(=O)(=O)c2ccc(NC(=O)c3ccc(Br)o3)cc2)cc1	6	5.2
O=C(/C=C/c1cccs1)Nc1ccc(-c2nc3ccccc3o2)cc1	13	.
Cn1nccc1C(=O)OCC(=O)c1ccccc1	-15	2.5
COC(=O)c1cc(COC(=O)COc2ccc(C)c(C)c2)oc1C	0	.
Cc1cc(C)n2nc(C(=O)N3CCCSC3=Nc3ccccc3)nc2n1	-17	.
CCC(C(=O)OC)n1cnc2c(nnn2Cc2ccc(Cl)cc2)c1=O (stereo not drawn)	-6	.
CS(=O)(=O)N1N=C(c2ccc(Br)cc2)CC1c1nc2ccccc2[nH]1 (stereo not drawn)	-18	.
COC(Cn1c(SCC(=O)c2cccc(C(F)(F)F)c2)nnc1-c1ccc(Cl)cc1)OC	.	-0.7
COc1ccc(CCn2c(NN)nc3ccsc3c2=O)cc1OC	6	0.8
COc1ccc(-c2cc(C(F)(F)F)n3nc(C(=O)Nc4ccc(C(C)=O)cc4)cc3n2)cc1	.	-1.7
COc1ccc(OCC(=O)c2c(O)c3ccccc3oc2=O)cc1	9	-0.2
O=C(O)CC(NC(=O)C(c1ccccc1)c1ccccc1)c1ccc(F)cc1 (stereo not drawn)	9	0.3
CC1=CCC2C(=O)N(c3ccc(O)cc3)C(=O)C2C1 (stereo not drawn)	-18	.
CCOC(=O)c1c(Nc2nc(C)cs2)sc2c1CCCC2	2	.
Nc1ccc(CNc2ncn[nH]2)cc1	10	0.6
Cc1cc(C)n(C(=O)CCC(=O)O)n1	5	0.5
O=S(=O)(c1ccc(NCc2ccc3c(c2)OCO3)nc1)N1CCCC1	-9	.
COC(=O)c1[nH]c2ccccc2c1I	.	0.0
COc1ccc2oc(=O)c(S(=O)(=O)c3ccccc3)cc2c1	9	.

Reprinted from the part before: 5 entries, then new ones.
SMILES	Sa helicase inh	MgrA DNA FP
Nc1ccc(CNc2ncn[nH]2)cc1	10	0.6
Cc1cc(C)n(C(=O)CCC(=O)O)n1	5	0.5
O=S(=O)(c1ccc(NCc2ccc3c(c2)OCO3)nc1)N1CCCC1	-9	.
COC(=O)c1[nH]c2ccccc2c1I	.	0.0
COc1ccc2oc(=O)c(S(=O)(=O)c3ccccc3)cc2c1	9	.
Cc1c(C(=O)NCc2cccc(Cl)c2)oc2ccc3c(c12)C(=O)CC(C)(C)O3	6	-1.8
O=C(OC1CCCCC1=O)c1cc2ccccc2[nH]1 (stereo not drawn)	8	.
Cc1ccc(CN(C)CC(=O)NCCc2ccc(S(N)(=O)=O)cc2)cc1	-4	.
CCCCCC(=O)Nc1ccc(N2CCN(c3ccc(C(F)(F)F)cn3)CC2)nc1	-24	.
Cc1c(Br)sc2sc(-c3ccn(C)n3)c(C)c12	0	.
O=C1NC(=O)C2C1ON(c1ccc(Cl)cc1)C2c1ccccc1 (stereo not drawn)	2	.
O=C(COc1ccccc1)N1CCN(C(=O)c2ccccc2)CC1	-12	0.3
Cc1cc(Cl)ccc1OCC(=O)N=Nc1c(O)[nH]c(=O)[nH]c1=O	8	2.2
COc1ccc(NC(C)=O)cc1NC(C)C(=O)NCC1CCCCC1 (stereo not drawn)	-1	.
CC1(c2ccc(C#N)cc2)NC(=O)N(CC(=O)C23CC4CC(CC(C4)C2)C3)C1=O (stereo not drawn)	-10	.
CC(NC(=O)CCc1nc2ccccc2s1)C1CC2CCC1C2 (stereo not drawn)	-15	-1.6
Cc1ccccc1C(=O)NC(NCc1ccco1)(C(F)(F)F)C(F)(F)F	8	.
CCCC(CCC)C(=O)Nc1cc(-c2cn3cccnc3n2)ccc1C	10	-1.7
CC1CC(C)CN(S(=O)(=O)c2ccc(C(=O)Nc3nc4ccc([N+](=O)[O-])cc4s3)cc2)C1 (stereo not drawn)	.	-0.4
CCC(C)N(C(=O)Cn1c(=O)cnc2ccccc21)C1CCS(=O)(=O)C1 (stereo not drawn)	10	.
C/C(=N/NC(=O)c1c(N)no[n+]1[O-])c1cccs1	17	-1.1
Cc1ccc(-c2cc(-c3ccccc3)nc(N)c2C#N)o1	-29	3.8
CCOC(=O)C1=C(N)Oc2ccccc2C1C(C#N)C(=O)OCC (stereo not drawn)	.	2.2
CCOc1ncccc1C(=O)OCc1ccc(C(=O)OC)o1	-1	.
O=C1C2Cc3ccccc3CN2C(=S)N1c1ccccc1 (stereo not drawn)	14	.
C(=N\c1nccs1)/N1CCOCC1	-4	.
O=C1N=c2ccccc2=C1c1sc2ccccc2c1O	0	1.9
O=C(NC1CCCC1)C1CCCN(S(=O)(=O)c2ccc(-n3cnnn3)cc2)C1 (stereo not drawn)	-3	2.4
O=S(=O)(CCSc1ccc(C(F)(F)F)cn1)c1ccc(Cl)cc1	15	.
NC(=O)c1cccc2c(=O)oc3ccccc3c12	-3	.
COc1cccc(NC(=O)CSc2nnc(C)o2)c1	15	.
O=C(O)C1Oc2ccccc2O1	4	-3.6
Cc1ccc(C(=O)CSc2ncnc3sc(C)c(C)c23)cc1	-23	.
Cc1ccc(-c2nnn(CCC(=O)NC(C)(C)C)n2)cc1	-1	2.8
COc1ccc(C(=O)NCc2nnc(SC)n2Cc2ccccc2)cc1	-18	.
COc1ccccc1/C=C1\SC(=O)N(CC(=O)N2CCOCC2)C1=O	6	-1.6
CCCN(CCC)Cn1nc(-c2ccncc2)n(CCCOCC)c1=S	12	.
CC(=O)Nc1[nH]c(O)c2ccccc12	9	.
COC(=O)c1c[nH]n2c(=O)c3c(nc12)CCN(Cc1ccccc1)C3	19	.
CC(C)(C)OC(=O)N1CCCC1C(=O)Oc1ccc2c(=O)c(-c3ccc4c(c3)OCCO4)coc2c1 (stereo not drawn)	-5	-2.4
CC(=O)Nc1ccc(S(=O)(=O)NCC(=O)OC2CCOC2=O)cc1 (stereo not drawn)	-11	.
CN(C)C(=O)c1c2c(nc3ccccc13)CCCC2	9	.
Cc1nc(COc2cc(C)c(Cl)c(C)c2Cl)cs1	.	1.2
COC(=O)c1ccc(OC)c(CSc2nnc(COc3cc(C)cc(C)c3)o2)c1	10	1.5
O=C(OCC(=O)c1c[nH]c2ccccc12)c1cccc(S(=O)(=O)N2CCOCC2)c1	8	.
O=C(COC(=O)Cc1c(F)cccc1Cl)NCc1ccc(Cl)cc1	-10	-2.0
COCCSc1ccccc1C(=O)N1CCCC1	7	2.4
COC(=O)c1sc(N)c(C(=O)OC)c1CSc1nncn1-c1ccccc1	20	.
Cc1nc(SCC(=O)O)oc1C	13	-7.0
COc1cc(NC(=O)c2cccs2)c(C(=O)O)cc1OC	.	-0.5
O=C1/C(=C\c2ccco2)N=C(SCn2nnc3ccccc3c2=O)N1c1ccc(OC(F)F)cc1	-9	.
COc1cccc(C(=O)CN2C(=O)/C(=C/c3ccco3)N=C2c2ccccc2)c1	-25	.
CC(=O)N1C(=O)C2(OCC3(CO2)COC2(OC3)C(=O)N(C(C)=O)c3ccccc32)c2ccccc21 (stereo not drawn)	-7	0.6
Cc1ccc(NC(=O)CN2C(=O)CCC2=O)c(C(=O)c2ccccc2)c1	-7	.
Nc1c(C(=O)c2ccccc2)sc2nccc(Nc3ccccc3)c12	6	-0.7
CCn1c(-c2ccc(C)cc2)cnc1SCC(=O)NCC1CCCO1 (stereo not drawn)	6	.
NC(=O)c1cc2ccccc2oc1=Nc1ccc(Cl)cc1Cl	15	.
O=C(O)C1Cc2ccccc2C1	.	2.0
COc1cc(C2C3=C(CC(C)(C)CC3=O)Nc3ccccc3N2C(=O)C(C)C)cc(OC)c1OC (stereo not drawn)	.	-0.3
COC(=O)c1sccc1N/C=C(\C#N)S(=O)(=O)c1ccc(Cl)cc1	.	-0.9
CC(C)c1cc(NC(=O)COC(=O)c2ccccc2CSc2ncn[nH]2)on1	-5	.
CCOC(=O)/C=C1\SCC(=O)N1Cc1ccc(Br)cc1	-1	.
CC(C)c1ccc(C(=O)CC#N)cc1	-4	.
COCCNC(=O)Cn1cc(/C=C2\C(=O)NC(=O)N(C3CCCCC3)C2=O)c2ccccc21	-31	17
CCc1ccc(Oc2c(C(F)(F)F)oc3c(CN4CCCCC4)c(O)ccc3c2=O)cc1	3	2.6

The final five entries of the section before come first, to join the parts.
SMILES	Sa helicase inh	MgrA DNA FP
CC(C)c1cc(NC(=O)COC(=O)c2ccccc2CSc2ncn[nH]2)on1	-5	.
CCOC(=O)/C=C1\SCC(=O)N1Cc1ccc(Br)cc1	-1	.
CC(C)c1ccc(C(=O)CC#N)cc1	-4	.
COCCNC(=O)Cn1cc(/C=C2\C(=O)NC(=O)N(C3CCCCC3)C2=O)c2ccccc21	-31	17
CCc1ccc(Oc2c(C(F)(F)F)oc3c(CN4CCCCC4)c(O)ccc3c2=O)cc1	3	2.6
COc1ccc(C(=O)Oc2c(C)cc(C(O)(C(F)(F)F)C(F)(F)F)cc2C)cc1	-5	-1.7
CC1SC2(CCCCC2)N(c2ccc(Cl)cc2)C1=O (stereo not drawn)	5	-2.8
Cc1ccc(S(=O)(=O)NC(=O)NCc2ccccc2)cc1	15	.
CC(C)(C)C(=O)ON=C(c1cccs1)c1cccs1	11	.
CN1/C(=C/C(=O)C(C#N)C2=NCCC2)C(C)(C)c2ccccc21 (stereo not drawn)	-46	1.3
C/C(=N\NC(=O)c1ccc2c(c1)OCO2)c1cc(F)ccc1O	6	.
CSc1c(-c2ccccn2)c(N)nn1C(=O)c1cccs1	.	0.2
COC(=O)c1ccc(Cl)cc1N(CCCC#N)S(=O)(=O)c1cccc(C(F)(F)F)c1	.	4.3
N#CCN1CCN(c2nc3ccc(Cl)cc3s2)CC1	.	-1.8
Cc1ccc(N2CNC(=O)c3c(C)cc(C)nc32)cc1	-5	-2.6
COC(=O)c1ccccc1NC(=O)n1ncc2cc(Cl)ccc21	16	.
O=S(=O)(NC1CCCCC1n1cc(-c2ccccc2)nn1)c1ccccc1 (stereo not drawn)	21	.
COc1ccc(-c2nn(C)c3ccccc23)cc1	5	-0.5
CS(=O)(=O)N1Cc2ccccc2CC1C(=O)OCc1nnc(-c2ccc(Cl)cc2)o1 (stereo not drawn)	6	.
O=C(O)C(O)c1ccc(Br)cc1 (stereo not drawn)	0	.
COC(=O)c1cc(S(=O)(=O)NC2CCN(Cc3ccccc3)CC2)cn1C	6	.
O=C(Nc1ccccc1)C1C2C=CC3(O2)C1C(=O)N(C1CCCC1)C3C(=O)NC1CCCCC1 (stereo not drawn)	-1	-0.3
CSc1ncccc1C(=O)OCCCCN1C(=O)c2ccccc2C1=O	14	.
CCOC(=O)c1c(NC(=O)c2cnn3c(C(F)(F)F)cc(-c4ccco4)nc23)sc2c1CCCC2	.	-1.4
NNC(=O)c1ccc(C(F)(F)F)cc1	-15	.

Single entries from the results shown:
CSc1ncccc1C(=O)OCCCCN1C(=O)c2ccccc2C1=O in Sa helicase inh has 14
COc1ccc(C(=O)NCc2nnc(SC)n2Cc2ccccc2)cc1 in Sa helicase inh has -18
Cc1nc(SCC(=O)O)oc1C in MgrA DNA FP has -7.0

In a second layout: results already given
Each structure is followed by: Sa helicase inh	MgrA DNA FP
NNC(=O)c1ccc(C(F)(F)F)cc1
→ -15	.
CSc1c(-c2ccccn2)c(N)nn1C(=O)c1cccs1
→ .	0.2
CCOC(=O)c1c(NC(=O)c2cnn3c(C(F)(F)F)cc(-c4ccco4)nc23)sc2c1CCCC2
→ .	-1.4
COC(=O)c1ccc(Cl)cc1N(CCCC#N)S(=O)(=O)c1cccc(C(F)(F)F)c1
→ .	4.3
CN1/C(=C/C(=O)C(C#N)C2=NCCC2)C(C)(C)c2ccccc21 (stereo not drawn)
→ -46	1.3

Following part.
SMILES	Sa helicase inh	MgrA DNA FP
CCC(C)C(=O)Nc1ccc(C(C)CC)cc1 (stereo not drawn)	13	0.6
O=C(O)CSc1ccccc1C(=O)O	18	.
CCOC(=O)Nc1nc2ccccc2[nH]1	.	1.4
CC(SCC(=O)N1c2ccccc2CC1C)C(=O)O (stereo not drawn)	-1	.
Cc1ncsc1C(=O)O	10	-2.0
O=C(c1ccc(F)cc1)N1CCCCC(Sc2nnc3sc4ccccc4n23)C1=O (stereo not drawn)	17	18
N#CCCCSc1nc2ccccc2c(=O)n1Cc1ccccc1	6	-3.8
Clc1ccc2c(c1)c1ccccc1n2CN1CCOCC1	.	-4.0
C/C=C(/C(=O)O)c1ccccc1OC	9	-3.1
CC(C)c1ccc(C2=C(O)c3ccccc3C(=O)C2=O)cc1	-2	1.5
O=C(Nc1c[nH]c2ccccc12)N1CCCc2ccccc21	11	.
CC1CCN(c2nc3nonc3nc2N2CCC(C)CC2)CC1	7	.
CCOC(=O)c1ccc(NC(=O)Cc2noc3ccccc23)cc1	-1	0.1
O=S(=O)(NCCCN1CCOCC1)c1ccccc1	7	1.7
COc1ccc(-n2cnnc2SCc2ncc(-c3ccccc3)o2)cc1	14	.
CCOc1ccc(Cc2nnc(N)s2)cc1OCC	2	.
CC(CO)NCc1ccccc1 (stereo not drawn)	9	-1.2
CSc1nnc(CCN2CCN(C)CC2)n1C	6	-1.1
Cc1ccc(-n2c(SCCc3c(C)noc3C)nnc2-c2ccc(Cl)cc2)cc1	11	.
CCCCNC(=O)Cc1n[nH]c(=O)c2ccccc12	11	.
CCc1ccccc1NC(=O)Cn1nnc(C(=O)NCCc2ccccc2)c1N	-28	.
O=C(CSc1nnc(-c2ccco2)o1)OCc1cc(F)cc2c1OC(c1ccccc1)OC2 (stereo not drawn)	-37	.
O=C(c1cc2cc(Br)ccc2oc1=O)N1CCSC1c1ccccc1 (stereo not drawn)	.	-1.0
Cc1cc(Cl)ccc1OCC(=O)OCC(=O)N1CCCCC1	-17	2.4
N/C(=N\S(=O)(=O)c1cc(Cl)sc1Cl)c1ccncc1	.	0.0
Cc1ccccc1NS(=O)(=O)c1ccc(CCN2C(=O)c3cccnc3C2=O)cc1	2	.
Cc1cc(C)n(CC(O)Cn2c3ccccc3c3ccccc32)n1 (stereo not drawn)	15	.

Bioassay records deposited in PubChem BioAssay by ICCB-Longwood Screening Facility, Harvard Medical School.
